High-throughput results from PubChem BioAssay.
Arbovirus anti – arbovirus infection inhibition; arbovirus infection cell-based antiviral screen; inhibition, % at 10 µM; 0.37% of 200,000 active; AID 1251;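 active = inhibition from about 30%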;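 also: bluetongue infection of BSR cells; cell survival read as ATP light after 72 h; 0% = infected wells without compound and 100% = uninfected wells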
YopH inh – YopH (Yersinia) phosphatase inhibition; fluorescence Ex485/Em525; inhibition, %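 (about 10 µM by stock and volumes)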; 0.16% of 140,000 active;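 active = inhibition of 50% or more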;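 also: controls were vehicle for no effect and minimum signal wells for full effect; inactives centre near -20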
Mtb growth – M. tuberculosis H37Rv growth inhibitors, H37Rv strain (AID 1626). M. tuberculosis H37Rv growth inhibition; higher % means a stronger effect. one-dose inhibition, % at 10 µM; IC50 in µM for titrated hits. 0.95% of 220,000 active;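 active = confirmed in a dose series; inconclusive = inhibition above 80% but not taken into the dose series; inactive = below 80% or under 30% at every dose of the series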;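 also: bacteria incubated seven days before Alamar blue readout; 0% = bacteria only wells and 100% = bacteria with antibiotic wells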
Mtb bLac sens – beta-lactam sensitization of Mtb H37Rv; M. tuberculosis H37Rv growth with meropenem, percent inhibition; hits of this screen are not shown here; inhibition, % at 25 µM; 0.27% of 330,000 active; AID 434955;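 active = about 74% or more and at least 40 points above the plate without the antibiotic, then above 30% in a dose series; inconclusive = first-round hits that could not be retested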;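 also: growth measured after seven days incubation then overnight dye step; 0% = bacteria only wells and 100% = bacteria with antibiotic; twin plates without the antibiotic show which effects depend on it; some results filed as inactive read as strong as hits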
RecA intein inh – blocks M. tuberculosis RecA intein splicing. inhibition, %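 (about 9 µM by stock and volumes)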. P9WHJ3. AID 2221. cell-free RecA intein splicing, fluorescence. 0.75% of 290,000 active; in the data active = inhibition above about 30%; inconclusive = no clear call, values can overlap the other calls;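 also: 0% = vehicle wells and 100% = reference inhibitor control wells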
Target sequence (P9WHJ3 whole entry, looked up): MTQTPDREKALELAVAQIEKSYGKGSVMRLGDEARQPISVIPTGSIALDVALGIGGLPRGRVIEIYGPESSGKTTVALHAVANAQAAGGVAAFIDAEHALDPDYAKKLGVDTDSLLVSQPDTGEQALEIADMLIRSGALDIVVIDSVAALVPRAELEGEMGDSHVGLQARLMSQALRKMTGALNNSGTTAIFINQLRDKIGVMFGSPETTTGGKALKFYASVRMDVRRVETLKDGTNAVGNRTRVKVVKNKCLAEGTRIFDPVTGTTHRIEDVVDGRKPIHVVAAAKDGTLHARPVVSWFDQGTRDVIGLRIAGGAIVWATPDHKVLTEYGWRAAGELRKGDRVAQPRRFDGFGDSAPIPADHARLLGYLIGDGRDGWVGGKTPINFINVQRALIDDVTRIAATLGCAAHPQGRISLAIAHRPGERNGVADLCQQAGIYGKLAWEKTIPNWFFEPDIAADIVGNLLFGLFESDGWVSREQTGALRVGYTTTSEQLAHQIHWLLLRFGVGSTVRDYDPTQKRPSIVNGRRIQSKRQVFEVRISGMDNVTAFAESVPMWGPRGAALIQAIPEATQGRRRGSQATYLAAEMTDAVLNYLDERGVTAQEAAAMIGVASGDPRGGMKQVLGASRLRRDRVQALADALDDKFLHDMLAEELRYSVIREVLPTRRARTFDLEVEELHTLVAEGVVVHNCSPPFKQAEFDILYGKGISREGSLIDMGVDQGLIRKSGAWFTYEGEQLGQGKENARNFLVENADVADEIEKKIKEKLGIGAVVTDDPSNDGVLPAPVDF
Arbovirus anti repeat – second read-out of Arbovirus anti, no call of its own (marks repeat the call); inhibition, %; measured here: 10K subset replicate screen; many hits read low in the repeat;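 first of two repeat runs on a subset; 0% = infected and 100% = uninfected wells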
Active calls of the source: *; ? = inconclusive; · = not tested or not shown. The list is partial, so the mix of outcomes need not match the whole.

SMILES	Arbovirus anti	YopH inh	Mtb growth	Mtb bLac sens	RecA intein inh	others
O=[N+]([O-])c1ccc(N2CCN(C(=S)Nc3ccc(F)cc3)CC2)cc1	2	·	1%	2	-1.9
Cc1ccsc1/C=N/Nc1ncc(Cl)cc1Cl	-6	-12	9%	·	-5.3
CC(=O)C1=C(C)NC(C)=C(C(C)=O)C1c1cccs1	7	12	-7%	-6	-12
CC(=O)c1cccc(CN2CCC(CO)(CCOc3ccccc3)CC2)c1	·	·	·	4	1.2
COc1cc(/C=C/C(=O)OCC(=O)NCCN2C(=O)CSC2=O)ccc1OC(F)F	3	·	-3%	-13	-0.5
O=C(CCCSc1nc2ccccc2[nH]1)NCc1ccccc1Cl	5	-11	-1%	4	-4.4
CC(=O)Nc1c2c(nn1-c1ccc(C)cc1C)CS(=O)C2 (centres undefined)	·	·	·	-6	0.2
O=C(NCCc1csc(-c2cccnc2)n1)c1ccc(Br)o1	2	-21	8%	4	1.3	Arbovirus anti repeat=4
Cc1ccc(-c2ccc(C(=O)O)[nH]2)cc1	5	-34	-1%	90	-1.9
Cc1cccc(SC2CCN(Cc3nc(CC4CC4)no3)CC2)c1	3	·	2%	-3	3.5
CN1CCN(S(=O)(=O)c2ccc(NC(=O)Nc3cccc(Cl)c3)cc2)CC1	-41	-1	-5%	-11	2.3
CCCCOc1ccc(C(=O)NNC(=O)C2C3CCC(C3)C2C(=O)O)cc1 (centres undefined)	·	·	·	1	0.9
CCOc1ccccc1NC(=O)c1ccccc1-c1ccccc1	·	·	·	95	5.3
O=C(/C=C/c1cccs1)Nc1scc(-c2ccccc2)c1C(=O)O	74*	·	-6%	·	47*
Cn1nnnc1SCCNCc1ccccc1OCc1ccc(F)cc1	-1	·	14%	-8	-1.6
COc1ccc(CCNC(=O)C(C(=O)c2ccccc2)n2ccccc2=O)cc1OC (centres undefined)	6	-26	1%	-1	-0.7
CCC1CCCCN1C(=S)NC1CCCCC1 (centres undefined)	-5	-15	0%	-1	-1.2
COC(=O)[C@@H](NC(=O)NCc1ccco1)C(C)C	3	14	-5%	-13	1.2
COCCN(CCOC)c1ncnc2c1cnn2-c1ccc(Cl)cc1	8	-20	-7%	·	3.0
O=[N+]([O-])c1cc2c(c(CSc3nnc4ccccn34)c1)OCOC2	5	-33	1%	9	-2.3
COc1cc(CCC(=O)NCc2ccc3c(c2)OCO3)cc(OC)c1OC	·	·	·	2	-0.6
O=C(c1ccncc1)c1ccc(N2CCN(C3CC(=O)N(Cc4cccs4)C3=O)CC2)cc1 (centres undefined)	4	·	-3%	3	1.6
Cc1cc(C)cc(NC(=O)CSc2nc(CSc3ccc(Cl)cc3)cc(=O)[nH]2)c1	·	·	-3%	0	2.7
Cc1ccccc1N=C1N=C(N)c2ccccc21	1	-38	6%	14	0.7
CCSc1nccc(-c2nn(-c3ccc(C)cc3)ccc2=O)n1	-27	-32	3%	-10	·
CC(C(=O)Nc1cccc(S(=O)(=O)N2CCOCC2)c1)N1CCN(C)CC1 (centres undefined)	·	·	·	-1	-1.0
N=c1sccn1CC(=O)Nc1cc(Cl)ccc1[N+](=O)[O-]	0	·	5%	7	5.3
CCCn1nnc(NC(=O)C(c2ccccc2)c2ccccc2)n1	5	3	-5%	-7	2.5
O=S(=O)(NCCC1CC1(Cl)Cl)c1ccccc1 (centres undefined)	·	·	·	0	0.9
OC(COc1ccccc1)CN1CCN(CC(O)COc2ccccc2)CC1 (centres undefined)	4	·	4%	-5	5.2
CCOc1ccc(N(CCCCO)C(=S)NC(=O)c2ccc(C)c(Br)c2)cc1	-4	·	6%	-2	3.9
CC(C)(C)OC(=O)N1CCC(Cc2cc(-c3cccnc3)no2)(C(=O)O)CC1	·	·	·	-7	-4.0
CC(=O)Nc1ccc(NC(=O)C2CCCN(S(=O)(=O)c3ccc(Cl)cc3)C2)cc1 (centres undefined)	·	·	·	1	-3.6
CC(NC(=O)CSc1ncccn1)c1ccccc1 (centres undefined)	7	-50	-2%	3	0.3
CCC(=O)N1CC2(CC(c3cccc(NC(=O)CC(c4ccccc4)c4ccccc4)c3)=NO2)C[C@H]1C(N)=O (some centres undefined)	·	·	-1%	7	3.3
Cc1ccc(S(=O)(=O)NNC(=O)c2cc(C)cs2)cc1	·	·	2%	-1	·
CCC(C)n1c(NC(=O)c2ccccc2)c(C#N)c2nc3ccccc3nc21 (centres undefined)	·	14	19%	96	-47
O=C(CCCN1C(=O)/C(=C\c2ccco2)SC1=S)Nc1ccc2ccccc2c1	5	-30	68%	-8	7.3
O=C(/C=C/c1ccccc1[N+](=O)[O-])NCCCn1ccnc1	7	·	7%	1	-0.9
Cc1ccccc1/C=C1\OC(=O)c2ccccc21	1	-38	-1%	-2	2.1
O=S(=O)(NCC1CCCO1)c1ccc2ccccc2c1 (centres undefined)	7	-33	0%	7	-0.7
C=CCn1c(=S)[nH]c2ccccc2c1=O	-5	19	16%	-7	·
CC(C)C(=O)NC(c1ccc(Cl)cc1Cl)c1ccc2cccnc2c1O (centres undefined)	·	·	·	6	7.8
COc1ccccc1C(=O)N1C(CC(=O)Nc2cc(Cl)ccc2C)C(=O)NC2CCCCC21 (centres undefined)	0	-18	27%	-4	1.9
CCC(C(=O)NCc1ccc(F)cc1)N(Cc1ccco1)C(=O)c1snc(C(N)=O)c1N (centres undefined)	6	-37	-6%	3	-0.5
CC(C)OC(=O)CSc1nc2cc3c(cc2cc1C#N)OCO3	0	2	-8%	4	-2.7
COCCn1c(SCC(=O)Nc2cc(C)on2)nc2c(c1=O)SC(C)C2 (centres undefined)	·	·	-13%	-9	-0.1
Cc1ccc(C(=O)N2c3ccc(F)cc3CCC2C)o1 (centres undefined)	3	-9	-12%	-13	6.5
Cc1cc(NCc2ccncc2)ccc1Br	-3	·	?	85	-1.3
O=C(CCC(=O)NC1CCCCCCC1)Nc1nnc(C(F)(F)F)s1	9	-22	74%	100	-8.0
COc1cc(C(=O)O[C@H]2C/C(C)=C/CC[C@@]3(C)O[C@@H]3[C@H](O)[C@@H]2C(C)C)cc(OC)c1OC	·	·	·	-16	1.7
Cc1c(CCC(=O)O)c(=O)oc2cc(OCc3cccc(Cl)c3)ccc12	·	·	·	4	-1.0
O=C(CSc1nnc(CNC(=O)c2cccs2)o1)Nc1ccc(F)cc1F	·	·	·	-13	-0.8
O=C(NCc1cccnc1)c1cc2nc(-c3ccc4c(c3)OCO4)cc(C(F)(F)F)n2n1	-10	·	-4%	-8	-2.7
COc1cc(/C=N\NC(=O)c2ccc(-c3ccccc3)cc2)ccc1OCC(N)=O	·	·	·	12	-0.3
CNC(C)C#Cc1ccc2oc3cccc(OC)c3c(=O)c2c1 (centres undefined)	·	·	·	-10	-12
CN1C(=O)CC(N2CCN(CC(=O)N3CCCC3)CC2)C1=O (centres undefined)	6	-26	2%	-10	0.9
O=C(N1CCC(n2nc(-c3ccccc3)oc2=O)CC1)C1(c2ccc(Cl)cc2)CC1	·	·	·	21	13
COc1ncccc1C(=O)NCC(CC(=O)O)c1ccccc1 (centres undefined)	6	-47	-14%	3	-3.7
Cc1cc(C)c(/C=N/NC(=O)c2nnn(-c3nonc3N)c2COc2ccc(F)cc2)c(C)c1	·	·	-2%	4	·
The list continues:
SMILES	Arbovirus anti	YopH inh	Mtb growth	Mtb bLac sens	RecA intein inh	others
Cc1cc(/C=N/NC(=O)c2ccsc2)c(C)n1-c1cnccn1	15	·	1%	5	0.2
O=C(Nc1nnc(-c2ccccc2Cl)o1)c1ccc(S(=O)(=O)N2CCCCCC2)cc1	-14	-23	?	95	3.9
CN1C(=O)C(CCC(=O)O)NC1=S (centres undefined)	·	·	-4%	22	1.8
N#CC1=C(N)C2=CCCC[C@H]2[C@H](c2cccc(F)c2)C1(C#N)C#N	7	-15	7%	0	-69
COc1ccccc1NC(=S)N1CCC(C(=O)c2ccc(F)cc2)CC1	3	·	5%	-6	-0.2
C[C@H](NC(=O)c1nc[nH]c1C(=O)NC1CCN(C(=O)OC(C)(C)C)CC1)C(=O)OC(C)(C)C	6	·	·	-2	-0.8
CCOC(=O)C1CCN(Cc2ccc(O)c3ncccc23)CC1	-19	-88	2%	-4	·
O=C(CSc1nc2ccccc2c(=O)[nH]1)N1CCN(c2ccccc2)CC1	·	·	·	-6	-0.4
COC(=O)C(C)Sc1nc2c(cnn2-c2ccc(C)cc2)c(=O)[nH]1 (centres undefined)	7	-31	-6%	3	1.5
O=C(c1ccc2c(c1)OCCO2)N1CCN(c2ccccn2)CC1	·	·	·	4	3.0
COc1ccc(CCNC(=O)c2cc(-c3ccc4c(c3)OCO4)on2)cc1OC	-5	-44	1%	9	-4.0
CC1=NN(C(=O)COc2ccccc2)C(O)(c2ccccc2)C1 (centres undefined)	8	-12	3%	-2	0.3
Cn1c(SCc2ccc(Cl)cc2Cl)nc(C(F)(F)F)cc1=O	6	-19	·	-4	-0.3
CCC(C(=O)Nc1cccc(C(=O)O)c1C)c1ccccc1 (centres undefined)	9	·	7%	-3	0.4
COc1ccc(CCN(C(=O)C(F)(F)F)C(C(=O)NC2CCCCC2)c2ccc(C)s2)cc1OC (centres undefined)	5	-18	8%	8	0.1

Among those listed so far, three have bromine.
SMILES	Arbovirus anti	YopH inh	Mtb growth	Mtb bLac sens	RecA intein inh	others
O=C(NCCc1csc(-c2cccnc2)n1)c1ccc(Br)o1	2	-21	8%	4	1.3	Arbovirus anti repeat=4
CCOc1ccc(N(CCCCO)C(=S)NC(=O)c2ccc(C)c(Br)c2)cc1	-4	·	6%	-2	3.9
Cc1cc(NCc2ccncc2)ccc1Br	-3	·	?	85	-1.3

(further entries)
SMILES	Arbovirus anti	YopH inh	Mtb growth	Mtb bLac sens	RecA intein inh	others
O=c1c2ccccc2ncn1-c1ccc([N+](=O)[O-])cc1Cl	·	·	·	0	-1.0
Cc1ccccc1CN1CCNC1=O	3	-4	4%	0	1.0
O=C(O)c1cccc(CSc2nc(-c3ccc(Cl)cc3)cc(C(F)(F)F)n2)c1	-3	-41	3%	-7	1.8
O=C(O)c1ccccc1C(=O)Nc1ccccn1	4	-20	-9%	-4	0.8
COc1cccc(CNCCc2ccc3c(c2)OCO3)c1OC	·	·	·	-1	4.4
Cc1cc(NS(=O)(=O)c2ccc(NC(=O)/C=C/c3cccc(Cl)c3)cc2)no1	·	·	·	91	-0.9
COCCn1c(SCC(=O)Nc2ccc(NC(C)=O)cc2)nc2ccccc2c1=O	·	·	·	3	-0.9
C=C(C)C1CC=C(C)/C(=N/Nc2ccccc2[N+](=O)[O-])C1 (centres undefined)	7	-23	3%	5	8.7
COc1ccc(NC(=O)N2CCN(C(=O)c3ccco3)CC2)c(OC)c1	·	·	·	-11	0.1
Cn1c(=O)c2c(nc3n2CC(O)CN3c2ccc(O)cc2)n(C)c1=O (centres undefined)	·	·	·	-7	0.0
CCCc1nc2c(C)cc(C)cc2c(N)c1CC	-18	-1	5%	-7	-0.4
CC(=O)N1CCN(c2ccc(NC(=O)c3ccc(Cl)c(Cl)c3)cc2)CC1	·	·	·	55	2.2
Cc1cc(-c2n[nH]c(=S)n2-c2ccc(C)c(C)c2)no1	0	-42	-8%	2	-1.4
Cc1c(-n2c(SCC(=O)NC(C)C)nc3ccccc3c2=O)c(=O)n(-c2ccccc2)n1C	0	·	0%	-5	2.6
Cc1cccc(C)c1NC(=O)CSc1nnc(-c2ccco2)n1N	9	-5	-3%	-6	-2.1
Oc1ccc(CC2(N3CCCC3)CCCCC2)cc1	·	·	·	1	1.4
CCc1ccccc1NC(=S)N(CCOC)C(C)c1ccco1 (centres undefined)	·	·	0%	-3	0.9
Cc1ccc(S(=O)(=O)NN2C(=O)c3ccccc3NC2c2ccccc2)cc1 (centres undefined)	2	·	-2%	1	-0.2
Cc1ccc([N+](=O)[O-])cc1N=Nc1c(C)[nH]n(C(N)=S)c1=O	·	·	·	-2	0.1

In the list so far, these contain a thiophene ring, fused or not.
SMILES	Arbovirus anti	YopH inh	Mtb growth	Mtb bLac sens	RecA intein inh	others
Cc1ccsc1/C=N/Nc1ncc(Cl)cc1Cl	-6	-12	9%	·	-5.3
CC(=O)C1=C(C)NC(C)=C(C(C)=O)C1c1cccs1	7	12	-7%	-6	-12
O=C(/C=C/c1cccs1)Nc1scc(-c2ccccc2)c1C(=O)O	74*	·	-6%	·	47*
O=C(c1ccncc1)c1ccc(N2CCN(C3CC(=O)N(Cc4cccs4)C3=O)CC2)cc1 (centres undefined)	4	·	-3%	3	1.6
Cc1ccc(S(=O)(=O)NNC(=O)c2cc(C)cs2)cc1	·	·	2%	-1	·
O=C(CSc1nnc(CNC(=O)c2cccs2)o1)Nc1ccc(F)cc1F	·	·	·	-13	-0.8
Cc1cc(/C=N/NC(=O)c2ccsc2)c(C)n1-c1cnccn1	15	·	1%	5	0.2
COc1ccc(CCN(C(=O)C(F)(F)F)C(C(=O)NC2CCCCC2)c2ccc(C)s2)cc1OC (centres undefined)	5	-18	8%	8	0.1
